Assay outcomes from PubChem BioAssay.
Cruzain inh noDet: inhibitors of Trypanosoma cruzi cruzain without detergent; P25779; purified cruzain, Z-FR-AMC fluorescence, no detergent; Potency, µM, for inactives: max response, negative = inhibition, usual class: inhibitors; hit rate 2.3% among 200,000;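 note: plate controls were enzyme without inhibitor for no effect and buffer without enzyme for full effect; nearly all actives have a fitted effect of over 40% in size; top concentration of the series not given in the record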
Target sequence (P25779 123-467 limits assumed): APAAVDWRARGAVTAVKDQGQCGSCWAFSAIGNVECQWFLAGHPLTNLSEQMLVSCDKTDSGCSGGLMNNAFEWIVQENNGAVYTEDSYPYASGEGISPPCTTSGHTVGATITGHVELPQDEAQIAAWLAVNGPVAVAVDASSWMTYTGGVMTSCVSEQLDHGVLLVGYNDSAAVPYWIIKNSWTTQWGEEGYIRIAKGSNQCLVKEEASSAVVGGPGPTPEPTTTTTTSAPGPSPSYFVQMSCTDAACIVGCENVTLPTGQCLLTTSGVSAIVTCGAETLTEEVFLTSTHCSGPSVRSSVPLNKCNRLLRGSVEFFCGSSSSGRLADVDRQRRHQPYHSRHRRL
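Detergent-free condition (0.00005% Triton X-100) in acetate buffer pH 5.5 with DTT. 1.5 nM enzyme and compound were pre-mixed 15 min, then 2 uM Z-FR-AMC substrate added; reaction progress from fluorescence change between first and third reads (60 s).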
StopGo reporter: lowers the luciferase signal of an FMDV 2A StopGo reporter; human cells with a luciferase reporter of 2A StopGo recoding; control for the full effect not named in the record; Potency, µM (series often up to 57.9 µM), for the others: top-dose signal change, negative = less light; hit rate 1.2% among 410,000; active = well fitted falling curve with a large enough effect; inconclusive = small, poorly fitted or top-dose-only effect; inactive = no such curve, though single readings can be large or run the other way; tested in HEK293T cells; note: % is set by controls: 0 for no effect and ±100 for the full control effect; nearly all actives have a fitted effect of over 45% in size; luciferase light after 4 h
RE007 growth inh: less growth of the S. pombe RE007 Vpr strain. AID 651644. Potency, µM (series often up to 92.2 µM), inactives show at the highest dose activity change, negative = less growth. hit rate 0.21% among 360,000. S. pombe RE007 Vpr strain, BacTiter-Glo ATP luminescence, 24 h; control for the full effect not named in the record; active = well fitted falling curve with a large enough effect; inconclusive = small, poorly fitted or top-dose-only effect; inactive = no such curve, though single readings can be large or run the other way;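 note: % is set by controls: 0 for no effect and ±100 for the full control effect; nearly all actives have a fitted effect of over 50% in size; the assay follows cell death caused by Vpr and the record does not say whether a fall means rescue or toxicity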
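Fission yeast RE007 carrying one integrated HIV-1 vpr copy, seeded at OD 0.01 in PMG+AL medium with 23 nL pinned compound. Grown 24 h at 30 degrees; viability read by BacTiter-Glo luminescence after 5 min.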
NS1 inh: inhibitors of influenza NS1 protein function | Potency, µM (series often up to 46.1 µM), for inactives: top-dose activity, positive = more growth | S. cerevisiae slowed by influenza A NS1, growth recovery by OD600 | hit rate 0.4% among 270,000; active means well fitted rising curve with a large enough effect; inconclusive means small, poorly fitted or top-dose-only effect; inactive means no such curve, though single readings can be large or run the other way; note: nearly all actives have a fitted effect of over 50% in size
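S. cerevisiae expressing influenza A NS1, grown in glucose, washed, then diluted 1:100 into pH 6.0 -URA galactose medium with 23 nl compound. Growth recovery read as OD600; NS1-free strain serves as control.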
Cruzain inh Det: inhibitors of Trypanosoma cruzi cruzain with detergent; P25779; purified cruzain, Z-FR-AMC fluorescence, 0.01% Triton; Potency, µM, for the others: max response, negative = inhibition, hits mostly inhibitors; hit rate 0.43% among 200,000; AID 1478;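 note: plate controls were neutral wells for no effect and buffer without enzyme for full effect; nearly all actives have a fitted effect of over 40% in size; top concentration of the series not given in the record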
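Purified cruzain (1.5 nM final) was preincubated with compounds for 15 min at room temperature in 100 mM sodium acetate pH 5.5, 5 mM DTT, 0.01% Triton X-100. Reaction started with 2 uM Z-FR-AMC; AMC fluorescence change over 60 s gave activity.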
LASV entry inh: Lassa virus entry inhibition. AID 540256. Lassa virus pseudotype entry inhibition, cell reporter; control for the full effect not named in the record. Potency, µM (titrated, usually from 37.9 µM), inactives show top-dose activity change, negative = inhibition, usual class: inhibitors. hit rate 1.2% among 300,000; active means well fitted inhibition curve with a large enough effect; inconclusive means small, poorly fitted or top-dose-only effect, or effect the other way; inactive means flat fitted curve, though single readings scatter; tested in HEK293 cells; note: % is set by controls: 0 for no effect and ±100 for the full control effect; nearly all actives have a fitted effect of over 50% in size; luciferase read-out
MARV entry inh: Marburg virus entry inhibition; Marburg virus pseudotyped entry inhibition, cell reporter; control for the full effect not named in the record; about a third of the inactives were read at about 46 µM; Potency, µM (series often up to 37.8 µM), for inactives: at the top dose activity change, negative = inhibition, usual class: inhibitors; hit rate 1.8% among 300,000; AID 540276; active = well fitted inhibition curve with a large enough effect; inconclusive = small, poorly fitted or top-dose-only effect, or effect the other way; inactive = flat fitted curve, though single readings scatter; tested in HEK293 cells; about a fifth of its hits are not listed in these tables; note: % is set by controls: 0 for no effect and ±100 for the full control effect; luciferase read-out
SARS PLpro yeast: inhibitors of SARS-CoV papain-like protease in yeast | S. cerevisiae expressing SARS-CoV PLpro, growth rescue; control for the full effect not named in the record | Potency, µM (series often up to 32.9 µM), for the others: at the highest dose activity, positive = growth rescue | hit rate 0.19% among 330,000; active means well fitted rising curve with a large enough effect; inconclusive means small, poorly fitted or top-dose-only effect; inactive means no such curve, though single readings can be large or run the other way; note: 0% is about no effect; nearly all actives have a fitted effect of over 55% in size; growth read by luminescence after 48 h
* = called active by the depositor; ? = inconclusive; . = no result given; & = joins results of further samples; ! = not active in a repeat; [ ] = dose if it differs, or a comment. Unless noted, calls come from the whole dose curve; as a rule, active = well fitted curve in the direction sought with a large enough effect; inconclusive = small, poorly fitted or top-dose-only effect, or another doubt; inactive = no such curve, though single readings can be large; an effect the other way counts as inactive or inconclusive. Potency is the fitted concentration of half-maximal effect.

entry | Structure | Cruzain inh noDet | StopGo reporter | RE007 growth inh | NS1 inh | Cruzain inh Det | LASV entry inh | MARV entry inh | SARS PLpro yeast
1 | CCOC(=O)Oc1ccc2c(=O)c(Oc3cccc(C)c3)coc2c1 | -11% | 53%[activator] | ? | -37% | -4.9% | -8% | 2% | -35%
2 | Cc1ccc(C)c(Cn2ncc3ccccc32)c1 | . | -16% | -20% | 1% | . | 24%[46.1 µM] | 5%[46.1 µM] | 2%
3 | Cc1ccc2[nH]c(C)c(CCNC(=O)C3CCCCC3C(=O)OCC(F)(F)F)c2c1 (stereo not drawn) | 18% | -5% | -7% | 12% | -4.4% | ? | ? | 12%
4 | Cn1cc(Cl)c(C(=O)N/N=C/c2ccc3c4c(cccc24)CC3)n1 | . | -8% | -21% | -10% | . | . | . | 23%
5 | COc1ccc(CCNC(=O)CS(=O)(=O)c2cn(CC(=O)N(C(C)C)C(C)C)c3ccccc23)cc1OC | . | -7% | ? | -15% | . | -4% | 6% | 4%
6 | CCC(C)NC(=O)CNS(=O)(=O)c1ccc(C)cc1 (stereo not drawn) | 8% | -12% | -5% | 6%[9.22 µM] | -1.4% | 13% | 18% | -2%
7 | CC(=O)Nc1cccc(C(=O)/C=C/c2ccc[nH]2)c1 | . | 57%[activator] | 0% | -4% | . | . | . | -1%
8 | COCCn1c(C)cc(C2=NNC(=Nc3ccc(OC)cc3)SC2)c1C | 1% | . | 8% | ? | -1.4% | -20% | ? | -6%
9 | COc1cc(OC)c(NC(=O)CSc2nc3ccncc3[nH]2)cc1Cl | -7% | ? | . | . | -30% | -6%[46.1 µM] | ? | 1%
10 | Cc1ccc(-c2nc(SCC(=O)NCc3ccco3)c3c(=O)n(C)c(=O)n(C)c3n2)cc1 | -4% | -48% | . | . | 2.4% | -6%[46.1 µM] | . | .
11 | O=C(C1CC1)N1CCN(c2ccc(O)cc2)CC1 | . | 8% | -4% | 16% | . | -18% | -16%[46.1 µM] | 1%
12 | CC1Cc2ccccc2N1Cc1cc(=O)c(OCC(=O)Nc2ccccc2)co1 (stereo not drawn) | . | -6% | -2% | . | . | -25% | -3% | -4%
13 | CC(Sc1nnnn1-c1ccc(O)cc1)C(=O)NC1CCCCC1C (stereo not drawn) | . | -20% | 3% | -4% | . | -24% | 5% | 2%
14 | COC(=O)CCN(C(=O)c1ccc(Cl)c([N+](=O)[O-])c1)c1ccccn1 | . | -3% | 7% | -1% | . | . | . | -6%
15 | CCOc1ccccc1CNC(=O)c1ccccc1NC(=O)C1=CSCCO1 | . | -23% | -17% | -17% | . | . | . | -5%
16 | O=C(O)C12C[C@H]3C[C@@H](C1)CC(n1ncc(N4CCN(c5ccccc5)CC4)c(Cl)c1=O)(C3)C2 | 10% | -14% | 9% | -1% | -3.7% | 12% | 0% | -12%
17 | Cc1nnc(SCC(=O)Nc2ccc(-c3nc4ccccc4s3)cc2)s1 | 26% | 0% | -24% | -5% | -5.4% | 10µM* | ? | 0%
18 | CSc1c(C#N)c(N)c(C#N)c2c1COC(C)(C)C2 | -11% | ? | 3% | -11% | -3.7% | 4% | -15% | -4%
19 | CCCN1C2CCCC1CC(NC(=O)c1cc(OC)c(OC)c(OC)c1)C2 (stereo not drawn) | -2% | 8% | -6% | -7% | 2.9% | -1% | ? | 3%
20 | Cc1ccc(N(C(=O)Cn2nnc3ccccc32)C(C(=O)NC2CCCCC2)c2cn(C)nc2C)cc1 (stereo not drawn) | -11% | . | -10% | -2% | 3.7% | 1% | 1%&15% | 0%
21 | Cc1ccc(C(C)C)c(OCC(=O)NN2C(=O)c3ccccc3C2=O)c1 | . | 0% | 9% | 8% | . | . | . | 6%
22 | O=C(NC(=S)Nc1ccccc1N1CCOCC1)c1ccc(-c2cc(Cl)ccc2Cl)o1 | 10µM* | -23% | 11% | 17% | -2.9% | -5% | 0% | 16%
23 | CNCC1(c2ccccc2)CCCC1 | 6% | -10% | 12% | 2% | 3.4% | -20% | -6% | 8%
24 | Cc1ccccc1OCC(=O)Nc1ccccc1C(=O)OCc1cc(=O)n2ccsc2n1 | -4% | 12% | . | . | 0.1% | ? | . | .
25 | CSc1ccc(/C=C/c2nc3ccccc3n2S(=O)(=O)c2ccc(F)c(C)c2)cc1 | 22% | -77% | . | . | -0.9% | ? | . | .
26 | NC12NC(=O)C3(O)C4C5CC(C6C5C3C61)C42 (stereo not drawn) | . | -5% | 0% | ? | . | -1% | -24%[46.1 µM] | 0%
27 | COc1ccc(C(=O)CC(=O)C(=O)Nc2ccccc2)cc1 | . | 4% | 2% | -32% | . | . | . | 1%
28 | COc1cc(/C=N/N(C)S(=O)(=O)c2ccc(C)cc2)cc([N+](=O)[O-])c1O | . | -22% | 7% | 5% | . | . | . | -2%
29 | CC1=NN(C(=O)c2ccccc2F)C(O)(c2ccc(Cl)cc2)C1 (stereo not drawn) | . | 6% | 4% | 8% | . | . | . | -11%
30 | CCCCC(=O)NC(Nc1cc(C)ccn1)(C(=O)OCC)C(F)(F)F (stereo not drawn) | 5% | 4% | -5% | -3% | 5.3% | 17% | 6% | 3%
31 | CCS(=O)(=O)c1nc(S(=O)(=O)c2ccc(C)cc2)c(NCc2ccc(Cl)cc2)s1 | ? | 23% | . | . | -3.1% | -22%[46.1 µM] | ? | .
32 | CCOC(=O)c1cc(C)n(CC2CCC(C(=O)Nc3ccc(OC)c(OC)c3)CC2)c1C (stereo not drawn) | ? | -29% | . | . | -4.3% | 2%[46.1 µM] | . | .
33 | O=C(C1=C[C@@H](c2coc3ccccc3c2=O)C[C@@H](OCCCCO)O1)N1CCN(Cc2ccc3c(c2)OCO3)CC1 | . | -17% | 1% | -12% | . | . | . | -1%
34 | COc1cc(C(=O)N2CCN(CCCc3ccccc3)CC2)cc(OC)c1OC | . | -4% | -11% | . | . | -21% | ? | .
35 | O=C(NCC1CCCO1)C1CCN(C(=O)c2ccc(Br)cc2)CC1 (stereo not drawn) | -7% | -3% | -4% | 4% | 5.5% | -16% | 2% | 2%
36 | CCc1ccc(NC(=O)C2CCCN(S(=O)(=O)c3ccc4c(c3)CCCN4C(C)=O)C2)cc1 (stereo not drawn) | ? | ? | 1% | 19% | -3.8% | ? | . | 0%
37 | COC(=O)C1CCN(S(=O)(=O)c2cn(C)c(=O)n(C)c2=O)CC1 | 10% | -20% | 3% | 8% | -3.7% | . | . | 3%
38 | Cc1ccc(NC(=O)CSc2nccn2Cc2ccco2)c(C)c1 | . | -5% | -8% | 0% | . | ? | ? | -4%
39 | O=C(CSc1nnc(-c2cccnc2)n1C1CCCCC1)NC1CCCCC1 | 22% | 1% | 4% | 0% | 1.8% | -19% | 3% | 3%
40 | COc1ccc(CCNC(=O)CCCn2c(=O)c3ccccc3n(CC(=O)Nc3cccc(C)c3)c2=O)cc1OC | ? | -13% | . | . | -4.8% | 2%[46.1 µM] | -7%[46.1 µM] | .
41 | COc1cc(/C=N/NC(=O)c2ccc3nc[nH]c3c2)cc(OC)c1OC | . | 5% | -3% | 1% | . | -1% | 5%[46.1 µM] | 0%
42 | CCOC(=O)C1CCN(CC(=O)N2C(C)CCCC2C)CC1 (stereo not drawn) | -20% | -3% | 9% | 0% | 2.0% | 10%[14.3 µM] | 17% | -7%
43 | CCOc1ncccc1C(=O)N1CCN(c2cccc(C)c2C)CC1 | . | ? | 5% | . | . | ? | ? | -3%
44 | COC(=O)C(C)NC(=O)C12CC3CC(CC(C3)C1)C2 (stereo not drawn) | 0% | -23% | 1% | -5% | 3.0% | 6% | 14%[46.1 µM] | 2%
45 | Cc1ccccc1NC(=O)c1ccc(CN2CCC(Cc3ccccc3)CC2)cc1 | -6% | ? | 0% | -13% | 2.5% | ? | ? | -3%
46 | COc1ccc(NC(=O)CN(C)C(=O)CCCc2c[nH]c3ccccc23)cc1 | . | -19% | -3% | . | . | -5% | ? | 0%
47 | O=C(c1cc(Cl)cc(Cl)c1)N1CCOCC1 | -1% | -1% | -17% | -9% | 4.9% | 54%[14.3 µM] | 1% | 1%
48 | CC(C)=CCc1c2c(c3occ(-c4ccc(O)c(O)c4)c(=O)c3c1O)C=CC(C)(C)O2 | 25µM*! | ? | -2% | 8% | -1.2%&-17% | 16µM* | ? | .
49 | COCCCNC(=O)COc1ccc(S(=O)(=O)Nc2ccccc2)cc1 | 5% | 4% | 4% | -2% | 3.8% | -4% | -1% | 5%
50 | CCOc1ccc(N2C(=O)S/C(=C\c3ccc(O)c(OCC)c3)C2=O)cc1 | . | ? | 3% | -6% | . | . | . | -1%
51 | COC(=O)c1cc(NC(=O)c2ccc(OC)cc2)c(=O)oc1C | . | 28% | 8% | . | . | 13% | -19%[46.1 µM] | 2%
52 | COc1cccc(C(=O)Nc2ccc(NC(=O)c3ccco3)c(Cl)c2)c1 | . | 14% | -20% | . | . | 2% | 2%[46.1 µM] | 0%
53 | CCOc1ccc(CNS(=O)(=O)c2ccc3[nH]c(=O)ccc3c2)cc1 | 9% | -24% | . | . | -1.2% | 5%[46.1 µM] | . | .
54 | CCn1c(O)c(N=Nc2ccc(S(=O)(=O)N3CCOCC3)cc2)c(=O)n(CC)c1=S | . | ? | 20% | 5% | . | . | 4% | 0%
55 | CC(=O)Nc1ccc(NC(=O)CCCc2nc(-c3ccc(C(C)(C)C)cc3)no2)cc1 | -11% | ? | . | . | -2.4% | . | . | .
56 | Cc1oc2ncn(C)c(=O)c2c1C(=O)N1CCN(c2ccccc2)CC1 | -5% | 6% | . | . | 0.9% | 7%[46.1 µM] | 14%[46.1 µM] | .
57 | COCCN(C(=O)c1ccccc1OC1CCN(S(C)(=O)=O)CC1)C(C)C | . | 4% | -12% | -3% | . | . | . | 0%
58 | Cn1c(=O)c2cc(S(=O)(=O)NCCC(=O)NCCc3ccc(Cl)cc3)ccc2n(C)c1=O | ? | -2% | -13% | -9% | 0.9% | 12% | 4%&-5% | 2%
59 | CCNC(=O)/C(C#N)=C/c1c(N2CCN(c3cccc(Cl)c3)CC2)nc2c(C)cccn2c1=O | . | -14% | 11% | -2% | . | . | . | 0%
